# From PubChem
# Vif TR-FRET: HIV-1 Vif–A3G interaction blockers – biochemical, TR-FRET, GST-Vif 1-94, biotin-A3G peptide, dose response retest, primary screen (AID 1117319) | TR-FRET GST-Vif / biotin-A3G peptide binding; higher % means a stronger effect; test concentration not given here; strong numbers were not always called active | one-dose inhibition, %; IC50 in µM for titrated hits | 0.57% of 260,000 active;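 active = above the screen mean plus three standard deviations and confirmed in dose response; inconclusive = results disagree or hit not tested in dose response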;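 also: Vif residues 1-94 fused to GST binding biotinylated APOBEC3G peptide 110-148; 0% = full assay without inhibitor and 100% = GST in place of GST-Vif; retest series ran down from 100 µM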
# E coli growth: E. coli growth inhibition | AID 1053175 | 0.21% of 330,000 active | OD600 absorbance (test concentration not listed) | Escherichia coli growth, OD600, 23 h; active compounds read low;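 active = OD600 absorbance below the run mean of sample wells minus 3.6 SD, in any replicate, cut at about 0.56 in these data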;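 also: stock transfer was 300 nL into about 60 µL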
# AF4-AF9 inh: blocks AF4 peptide binding to human AF9; AlphaScreen, biotin-AF4 peptide binding to FLAG-AF9; inhibition, % at 10 µM; 0.47% of 350,000 active; AID 651704; P42568;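 active = every replicate reaching a set inhibition limit, whatever the replicate mean, cut at about 25% in these data; inconclusive = mean inhibition reaches that limit but some replicates miss it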;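 also: 0% = plate neutral control median and 100% = total signal loss; the record names both 10 and 1 µM as test concentration; the first replicate is given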
# FGF22 binding: shifts melting point of recombinant human FGF22; Q9HCT0; recombinant FGF22 thermal shift, SYPRO orange fluorescence; percent of sucrose octasulfate shift, DMSO zero; calls only at 9.99 µM; 1.5% of 340,000 active;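 active = melting point raised past a set limit in the mean and every replicate; inconclusive = no clear call; three in four hits are not shown here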
# Target sequence (Q9HCT0 whole entry, looked up): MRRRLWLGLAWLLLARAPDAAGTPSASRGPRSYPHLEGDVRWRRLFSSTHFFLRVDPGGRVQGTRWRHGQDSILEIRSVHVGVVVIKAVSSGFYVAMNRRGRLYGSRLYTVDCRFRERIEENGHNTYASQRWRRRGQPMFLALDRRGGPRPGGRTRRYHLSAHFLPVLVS
# RanGTP-Imp inh: inhibitors of RanGTP-importin-beta interaction, primary screen, biochemical, FRET, CFP-Ran, YFP-importin-beta, homogeneous; inhibition, % (test concentration not listed); cell-free CFP-Ran/YFP-importin-beta FRET ratio; 1.1% of 300,000 active;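 active = most replicates above 15%; inconclusive = exactly half above 15%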;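 also: 0% = DMSO wells and 100% = Ran loaded with GDP instead of GTP; wells of about 40 µL received 100 nL stock; the first replicate is given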
# UCH37 DUB inh: blocks the human deubiquitinase UCH37; 0.33% of 330,000 active; Q9Y5K5; purified proteasome/UCH37, Ub-AMC cleavage fluorescence; inhibition, % (no concentration beside the values); AID 588478;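 active = mean of two replicates above 20%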;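 also: 0% = compound-free wells with enzyme and 100% = wells lacking proteasome; stock transfer was 100 nL into about 20 µL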
# Target sequence (Q9Y5K5 whole entry, looked up): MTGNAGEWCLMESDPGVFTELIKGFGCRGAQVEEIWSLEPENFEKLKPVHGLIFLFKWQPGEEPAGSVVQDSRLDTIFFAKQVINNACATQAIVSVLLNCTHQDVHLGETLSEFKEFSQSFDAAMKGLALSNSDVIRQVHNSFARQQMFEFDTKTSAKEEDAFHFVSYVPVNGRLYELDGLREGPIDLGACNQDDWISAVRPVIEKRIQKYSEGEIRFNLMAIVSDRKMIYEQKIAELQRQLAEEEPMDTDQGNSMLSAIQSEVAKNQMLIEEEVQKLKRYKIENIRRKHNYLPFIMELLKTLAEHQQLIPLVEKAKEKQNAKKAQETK
#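 Reagent: Ub-AMC substrate; assay system: Proteasome-associated human UCH37 deubiquitinase; controls: no-proteasome and no-compound wells; read-out: % inhibition of Ub-AMC cleavage fluorescence; timing: 30 min preincubation with enzyme, 25 min cleavage at room temperature; signal: AMC fluorescence from Ub-AMC cleavage, excitation 355 nm, emission 460 nm; buffer or medium: Tris-HCl pH 7.4 plus ovalbumin, ATP-MgCl2, DTT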
# HNF4A DNA FP: change in binding of human HNF4 alpha to DNA. activity change, % at 10 µM. HNF4a-FITC DNA binding, fluorescence polarization, 1 h. 0.3% of 360,000 active. AID 1224865; in the data active = activity change above about 30%, passing the limit was not always enough;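 also: controls were the assay level and a saturating level of protein; the project sought stronger binding though the title names inhibitors; some compounds called inactive have numbers as strong as hits; positive values seem to mean higher polarization but the record does not say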
# Target sequence (P41235 whole entry, looked up): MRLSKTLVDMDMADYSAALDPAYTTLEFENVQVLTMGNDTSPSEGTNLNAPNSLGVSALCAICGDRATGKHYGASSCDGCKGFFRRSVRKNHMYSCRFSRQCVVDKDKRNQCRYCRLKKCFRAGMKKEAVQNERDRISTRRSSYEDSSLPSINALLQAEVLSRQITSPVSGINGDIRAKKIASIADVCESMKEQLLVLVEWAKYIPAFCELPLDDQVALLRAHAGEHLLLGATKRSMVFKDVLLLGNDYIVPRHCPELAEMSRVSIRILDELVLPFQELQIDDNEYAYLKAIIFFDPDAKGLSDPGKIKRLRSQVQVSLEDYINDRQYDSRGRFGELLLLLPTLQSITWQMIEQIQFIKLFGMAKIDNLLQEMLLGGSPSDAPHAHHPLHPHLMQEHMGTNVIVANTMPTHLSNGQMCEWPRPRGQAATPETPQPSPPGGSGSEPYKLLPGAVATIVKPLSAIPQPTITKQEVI
# * = called active by the depositor; i = inactive; ? = inconclusive; · = no result given; + = active, no number; & = joins results of further samples. Not all compounds are listed. The share of hits here may be higher or lower than overall.
# The line under a structure holds: Vif TR-FRET	E coli growth	AF4-AF9 inh	FGF22 binding	RanGTP-Imp inh	UCH37 DUB inh	HNF4A DNA FP
CCOc1ccc(OCC)c(NC(=O)CN(C)S(=O)(=O)c2ccc3nc(C)sc3c2)c1
 : 15%	0.72	·	·	4.3	3.9	5.2
Cc1nn2c3c(cnc2c1-c1ccccc1)C(=O)CC(c1ccccc1)C3 (stereo unspecified)
 : -50%	0.77	·	·	13	-6.2	0.3
O=C(/C=C/c1cnc2ccccc2n1)NC1CCCCCC1
 : 7%	0.69	·	·	0.0	5.2	-2.6
CNC(=O)COc1coc(CN2CCN(c3ccccc3)CC2)cc1=O
 : ·	0.69	-1.4	i	-3.1	-0.7	-3.3
COc1ccc(C(=O)c2ccccc2)c2c(O)ccc(C(=O)c3ccccc3)c12
 : 7%	0.66	·	·	-3.3	41*	1.0
Cc1ccc(CC(NC(=O)c2ccccc2)C(=O)NC(C)C(=O)O)cc1 (stereo unspecified)
 : >100µM*	0.71	·	·	4.0	0.9	-0.1
COc1ccc(CSc2nncn2N)cc1[N+](=O)[O-]
 : -3%	0.65	·	·	?	2.9	-0.6
COc1ccc(C(C(O)C(=O)c2c[nH]c3ccccc23)N2CCN(c3ccc(OC)cc3)CC2)cc1 (stereo unspecified)
 : 8%	0.67	·	·	0.1	5.3	0.5
O=C(CNC(=O)c1ccncc1)N/N=C/c1cccc([N+](=O)[O-])c1
 : ·	·	-2.3	·	6.2	·	0.5
COc1ccc(N2C(=O)CSC2c2cccc(OC)c2OC)cc1 (stereo unspecified)
 : ·	0.67	·	·	-4.5	2.9	-2.3
COC(=O)c1cccc(Nc2cc(C)nc(-c3ccccc3O)n2)c1
 : 30%	0.67	·	·	6.1	-21	0.8
CCOC(=O)c1c(C)oc2ccc(OCc3cc(C(=O)OC)oc3C)cc12
 : 13%	0.73	·	·	7.1	5.1	0.6
CCOC(=O)c1sc2nc(C)c([N+](=O)[O-])c(COC)c2c1N
 : -5%	0.75	-4.3	i	3.2	4.0	-2.1
O=C(COC(=O)CNC(=O)c1ccc(Cl)c([N+](=O)[O-])c1)NCC1CCCO1 (stereo unspecified)
 : -11%	0.71	-1.1	i	·	1.5	2.2
Cc1c(C(=O)NCc2cccc(C(F)(F)F)c2)sc(=O)n1Cc1ccc(S(=O)(=O)N(C)C)cc1
 : ·	·	-1.8	i	·	·	0.7
COc1ccc(C(=O)c2ccc(OC)cc2OC)cc1
 : -8%	·	-3.4	i	-2.9	·	3.3
O=C(Nc1ccccc1C(=O)Nc1ccncc1)c1ccc([N+](=O)[O-])cc1
 : ·	0.65	1.6	i	?	3.8	-3.0
COc1ccc(C(=O)OCC(=O)c2ccc[nH]2)cc1
 : 3%	0.6	-2.1	i	·	-0.3	0.3
CC1(C)CC(=O)C(CC(=O)c2ccccc2)=C(NN=C(N)N)C1
 : -4%	·	1.6	i	·	·	-7.3
CCOC(=O)N1CCN(CCC(=O)Nc2ccccc2)CC1
 : ·	0.65	1.6	i	1.0	1.5	1.1
COc1ccc(CC(=O)Nc2cccc(-c3ccc4nncn4n3)c2)cc1OC
 : -9%	0.66	-5.0	·	1.2	5.7	1.6
CCN(CC)S(=O)(=O)c1ccc(NC(=S)NC(=O)CC(C)C)cc1
 : 0%	0.66	1.7	i	-2.6	2.4	3.0
CCCn1c(SCC(=O)Nc2c(C)cccc2C)nnc1C(C)C
 : ?	0.68	·	·	-0.6	4.9	-1.0
COC(=O)c1ccccc1NC(=O)Nc1nnc(N2CCC(C)CC2)s1
 : 6%	0.77	-6.1	i	-0.6	4.1	-0.7
N#CC1CC(c2ccccc2)Nc2cc(Cl)ccc2N1 (stereo unspecified)
 : 4%	0.67	5.5	i	-0.8	-1.7	0.1
Cc1ccc(NC(=O)Nc2ccc(S(N)(=O)=O)cc2)cc1
 : 4%	0.66	-0.4	i	-2.7	4.1	-2.1
O=C(c1ccccc1)N1CCN(C(=O)c2ccncc2)CC1
 : ·	0.67	·	·	-4.2	3.4	-2.4
COc1ccccc1Cc1c(-c2ccco2)nc2ccc(C)cn12
 : ·	·	-85	i	·	·	0.0
O=C(NCc1ccccn1)c1c(Cl)cccc1Cl
 : 4%	0.72	·	·	1.1	-0.4	-1.1
CCOC(=O)c1cnn(-c2ccccc2)c1-n1cccc1C(=O)C(=O)N(CC)CC
 : ·	0.64	-1.3	i	1.1	5.5	18
CCN(C[C@H]1N[C@@](CC)(C(=O)OC)[C@H]2C(=O)N(C)C(=O)[C@@H]12)C(=O)COc1ccccc1
 : 1%	0.69	0.9	i	·	2.6	-2.2
CCOCC(=O)N1CCN(Cc2ccc3c(c2)OCO3)CC1
 : ·	0.7	-1.5	i	1.8	2.4	-2.9
Cc1nc2c(Cl)c(C)nn2c2c1CCC2
 : 4%	0.72	1.7	i	-3.2	-3.2	0.1
COc1ccc(OC)c(Nc2ccc(C(=O)O)cc2[N+](=O)[O-])c1
 : ·	0.68	1.6	i	4.4	7.4	3.1
COc1ccc2nc(NC(=O)CCN3C(=O)c4ccccc4C3=O)sc2c1
 : -2%	0.7	·	·	12	3.4	2.7
COc1cccc(NS(=O)(=O)c2ccc(C)c(C(=O)N3CCCCC3)c2)c1
 : -1%	0.69	-1.4	i	-0.7	6.2	2.6
O=C(OCC(=O)N1CCN(c2ccccc2)CC1)c1ccccc1[N+](=O)[O-]
 : -3%	0.64	-13	i	2.0	1.7	0.0
O=C(Cn1c(=O)oc2cc(S(=O)(=O)N3CCCC3)ccc21)Nc1ccc(C(F)(F)F)cc1
 : -6%	0.7	·	·	6.7	-1.9	-0.1
Cc1ccc(C)c(N2CCN(C(=O)c3csc4ccccc34)CC2)c1
 : 14%	0.65	·	·	-0.9	6.2	3.3
CN(Cc1cccc(C(F)(F)F)c1)C(=O)[C@H]1O[C@@H](n2ccc(N)nc2=O)[C@H](O)[C@@H]1O
 : ·	·	-1.0	i	·	·	7.4
CC(=C/c1ccccc1)/C=N/NC(=O)c1cc(C)oc1C
 : 15%	·	-7.0	i	-3.4	·	-1.6
COc1ccc(OC)c(S(=O)(=O)n2ccnc2C(C)C)c1
 : ·	0.66	-0.6	i	-3.0	0.5	-0.8
CCOC1=C2[C@@H](CN(S(=O)(=O)c3ccccc3C)[C@H]2c2ccc(Cl)cc2)[C@H]2C(=O)NC(=O)[C@H]2C1
 : ·	·	1.0	i	·	·	0.7
CCCCCC(=O)N1CCN(CCN=CC2=C(O)CC(c3cccs3)CC2=O)CC1 (stereo unspecified)
 : -6%&4%	0.75	-2.8	i	1.5	-1.3	1.7&2.8
COc1ccccc1/C=C/C(=O)OC(C)CN1CCCCC1 (stereo unspecified)
 : ·	0.66	3.5	i	-0.6	-40	-1.7
Cc1ccc2c(c1)c(CC(=O)Nc1ccc(C)c(F)c1)c(C(=O)O)n2C
 : 59%	0.67	0.2	+	1.9	0.3	-1.7
Clc1ccc(Cn2ncc3c(N4CCCCC4)ncnc32)c(Cl)c1
 : -1%	0.77	·	·	2.1	6.5	·
CCOC(=O)C1(Cc2cccc(OC)c2)CCN(Cc2ccc(C)s2)CC1
 : 11%	0.69	4.2	i	3.1	0.9	4.1
COc1ccc(N/N=C(\C#N)C(=N)N2CCCCC2)cc1
 : 4%	·	8.4	·	2.0	·	1.6
O=C(Nc1ccc(F)c([N+](=O)[O-])c1)c1ccc2c(c1)OCCO2
 : -3%	0.69	-1.4	i	-2.4	2.3	2.6

# Next structures follow.
# The line under a structure holds: Vif TR-FRET	E coli growth	AF4-AF9 inh	FGF22 binding	RanGTP-Imp inh	UCH37 DUB inh	HNF4A DNA FP
COc1cc(C(=O)NNC(=O)c2cc(-c3ccccc3)n[nH]2)cc(OC)c1C
 : 14%	·	-0.5	i	·	·	-3.1
CCC(=O)N[C@@H]1C=C[C@@H](CC(=O)NCc2ccccc2F)O[C@@H]1CO
 : ·	·	-2.4&-0.4	i	·	·	-1.1
O=C(NNC(=O)c1ccccc1OCc1ccccc1Cl)c1csc(N2CCOCC2)n1
 : ·	0.69	-1.7	i	-4.8	-3.7	3.3
Cc1ccc2oc(=O)cc(CN3CC(C)OC(C)C3)c2c1 (stereo unspecified)
 : 0%	0.68	-1.4	i	6.9	-1.2	-1.8
Cc1ccc(CSc2[nH]c(=O)ncc2C)cc1
 : ·	0.7	-18	i	2.3	-0.9	1.8
O=C(NNC(=O)c1cccs1)c1ccc(Cl)c(Cl)c1
 : 21%	·	2.7	i	2.4	·	-0.5
COc1ccc(-c2cc3c(=O)n(CC(=O)NCc4cccnc4)nc(C)n3n2)cc1
 : ·	0.67	0.1	i	7.3	-1.4	-3.3
COc1cc(C(=O)NCCC(=O)NCCN2CCCCCC2)cc(OC)c1OC
 : -7%	0.72	·	·	11	4.0	-1.7
CCc1ccccc1SCc1noc(C(=O)NCC2CCCO2)c1C(=O)O (stereo unspecified)
 : 6%	0.68	-1.5	i	3.4	0.6	-1.4
COc1cc(C)ccc1OCc1cc(C(=O)N2CCN(C3CCCCC3)CC2)no1
 : 6%	0.67	4.8	i	2.0	1.6	-0.2
CCOC(=O)c1sc2nc3c(SCC(=O)O)cc(C(=O)c4cc(F)ccc4O)cn3c(=O)c2c1C
 : -7%	0.61	0.0	i	4.0	8.7	-5.0
CCC(C)NC(=O)CSc1nc2n[nH]c(C)c2c(=N)n1-c1ccc(OC)cc1 (stereo unspecified)
 : 5%	0.76	·	·	0.7	5.2	0.8
O=C(Cn1cc2c(n1)CCCC2)Nc1ccccc1Cl
 : -6%	0.71	4.5	i	?	1.2	3.4
Cc1ccc2c(c1)c(N=NC(N)=S)c(O)n2Cc1ccccc1
 : ·	·	-1.4	i	0.2	·	-0.6
CC(OC(=O)C1=COCCO1)C(=O)NC1(C#N)CCCCC1 (stereo unspecified)
 : -4%	0.7	0.8	i	·	0.1	-2.4
CSc1nc(C)c2c(n1)N(c1ccc(O)cc1)CC2
 : 10%	0.65	-0.5	i	?	-2.0	0.6
O=C(NCc1ccccc1Cl)c1ccc(-c2ccccc2)cc1
 : 2%	0.64	-8.6	i	?	0.0	-1.6
C/C(=N/NC(=O)CNC(=O)C1COc2ccccc2O1)c1ccc2c(c1)OCCO2 (stereo unspecified)
 : 30%	·	-3.5	i	?	·	-0.9
COc1ccc(OCc2nc(C#N)c(N3CCN(c4ccc(OC)cc4)CC3)o2)cc1
 : 6%	0.78	0.0	i	0.2	8.5	-1.2
CC(=O)Nc1cccc(-c2ccnc3c2CC(C(=O)NCc2ccc(N(C)C)cc2)O3)c1 (stereo unspecified)
 : ·	·	31*	i	·	·	-6.3
CCCCCC(=O)N1C[C@@H](O)[C@H](n2cc(COC(=O)c3ccccc3)nn2)C[C@@H]1c1ccc(Cl)cc1
 : 0%	·	-0.5	i	·	·	3.3
CCn1cc(C(=O)N[C@@H](CCSC)C(=O)NCCCN2CCOCC2)c(=O)c2cc3c(cc21)OCO3
 : ·	0.67	-0.8	i	0.6	-14	-2.3
CCCN(C(=S)Nc1ccccc1)C1CCS(=O)(=O)C1 (stereo unspecified)
 : 65%	0.7	·	·	3.7	0.3	-1.7
C/C=C(/C)C(=O)O[C@@H]1c2c(ccc3ccc(=O)oc23)OC(C)(C)[C@@H]1OC(C)=O
 : ·	·	-3.3	i	·	-2.2	-2.5
CNC(=S)N/N=C/c1ccccc1OCC(=O)O
 : -13%	·	10	i	-0.8	·	-2.1
O=C(CCc1ccccc1O)N/N=C/c1ccc(Sc2cccc3cccnc23)o1
 : 7%	·	·	·	-0.3	·	5.1
Cc1cc(C(=O)N2CCC(CO)(Cc3cccc(C(F)(F)F)c3)CC2)n[nH]1
 : ·	0.7	0.9	i	0.3	6.3	1.4
